Hsc70 ATP site: Hsc70 inhibitors, probe displacement, primary screen, biochemical, fluorescence polarization (AID 568); Hsc70 fluorescence polarization, probe displacement; higher % means a stronger effect; strong numbers were not always called active; displacement, % at 20 µM, or IC50 in µM where a hit was titrated; 83,000 tested, under 10 active;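 active means displacement above 50% without optical interference and an IC50 on retest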;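 further: ATPase domain with a fluorescein-tagged ATP probe; 0% = vehicle and 100% = excess ADP; read after one hour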
WNV protease inh: blocks West Nile virus NS2B-NS3 protease activity; P06935; 0.18% of 65,000 active; z-score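 (tested at a level between 10 and 100 µM)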; WNV NS2B-NS3 protease, fluorogenic substrate Ex360/Em465; hits give low values;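 active means z-score at -3 or under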;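 further: score is relative to mean and spread of the compound wells of a plate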
Target sequence (P06935 1371-1501 limits assumed): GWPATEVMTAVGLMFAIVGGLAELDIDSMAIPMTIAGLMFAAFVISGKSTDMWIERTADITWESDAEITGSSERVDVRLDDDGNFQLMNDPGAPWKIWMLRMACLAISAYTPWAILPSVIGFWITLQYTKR
Target sequence (P06935 1502-1679 limits assumed): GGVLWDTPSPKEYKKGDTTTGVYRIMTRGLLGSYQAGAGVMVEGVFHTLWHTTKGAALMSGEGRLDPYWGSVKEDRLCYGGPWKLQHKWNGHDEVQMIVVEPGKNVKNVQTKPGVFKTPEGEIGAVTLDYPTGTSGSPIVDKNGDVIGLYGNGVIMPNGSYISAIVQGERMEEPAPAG
MT1-MMP reporter: MT1-MMP gene expression reporter suppression – cell-based, luciferase reporter, luminescence (AID 618). MT1-MMP promoter luciferase reporter cells, luminescence. calls from a first round at 10 µM; hits with a dose series show EC50 in µM. 0.62% of 87,000 active;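 active means over half of the reporter light lost at 10 µM or EC50 under 50 µM; inactive means the rest and hits that failed the dose series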;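 further: actives suppress MT1-MMP promoter-driven transcription so potencies describe inhibitors; HT1080 fibrosarcoma cells; overnight exposure; toxic or luciferase-blocking compounds were not removed from the actives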
The depositor's hits bear a star; i = inactive; nt = not tested or not shown; + = active, no number. These rows are one share of the data; rates above refer to the full screens.

Each structure is followed by: Hsc70 ATP site	WNV protease inh	MT1-MMP reporter
> COc1ccccc1OCC(=O)N/N=C1\CCc2ccccc21
 : -1.3%	nt	i
> Cc1cc(C(=O)OCC(=O)Nc2ccc(S(=O)(=O)N3CCOCC3)cc2)c(C)o1
 : 0.2%	-0.32	i
> COc1ccc2cc(C3(C)NC(=O)NC3=O)ccc2c1 (stereo unspecified)
 : -2.1%	0.53	i
> CCCCCCCCCCOC(=O)c1csc2nnsc12
 : -1.2%	nt	i
> CC1(C)Cc2c(sc3c2C2=NCCN2C=N3)CO1
 : 34%	0.09	i
> CCOC(=O)C1CCN(Cc2oc(CO)cc(=O)c2O)CC1
 : -0.3%	nt	i
> Cc1ccccc1Nc1nc(N)nc(CSCc2c(C)noc2C)n1
 : -0.7%	0.59	i
> O=S(=O)(Nc1ccc2c(c1)OCCO2)c1ccc(Br)s1
 : -6.5%	0.1	i
> Cc1cc(C)n2c(SCC(=O)N(C)C3CCS(=O)(=O)C3)nnc2n1 (stereo unspecified)
 : 7.5%	2.3	i
> COc1cc(NC(=O)c2ccc(S(=O)(=O)N(C)C)cc2)cc(OC)c1OC
 : 4.9%	-0.83	i
> CC(=O)Nc1ccc2[nH]c3ccccc3c2c1
 : 3.6%	-1.1	i
> COc1ccc(N2CCn3c2nc2c3c(=O)n(CCN3CCOCC3)c(=O)n2C)cc1
 : 0.8%	0.76	i
> C=CCN(CC=C)S(=O)(=O)c1ccc(F)cc1
 : -4.3%	0.25	i
> O=C1NCCN1C(=O)c1ccco1
 : 7.3%	-0.14	i
> Fc1ccc(CSc2nc3ncccc3[nH]2)cc1
 : -0.8%	0.67	i
> Cn1c(C(=O)NCCCN2CCCCC2)cc2sccc21
 : 1.2%	1	i
> Cc1n[nH]c(=O)nc1NCCN(C)C
 : 1.9%	-0.41	i
> Cc1ccccc1OCC(=O)Nc1ccc(N2CCN(S(C)(=O)=O)CC2)cc1
 : -5.7%	0.32	i
> COc1ccc(CC(=O)Nc2ccc(-c3nc4cc(C)ccc4o3)c(O)c2)cc1OC
 : -19%	0.36	i
> O=S(=O)(N1CCCCC1)N1CCN(c2ccccc2F)CC1
 : 1.3%	nt	i
> CCOC(=O)C(C)Oc1cccc2c(=O)n(CC(=O)NCc3ccco3)ccc12 (stereo unspecified)
 : 4.7%	1.2	+
> O=C(NCc1cccnc1)C1CC(c2ccc(F)cc2)=NO1 (stereo unspecified)
 : 0.8%	0.41	i
> COc1cccc(NC(=O)CCc2nc(-c3ccccc3F)no2)c1
 : 5.1%	nt	i
> O=C(NCCCN1CCOCC1)c1csc2c1CCCC2
 : -1.1%	-0.4	i
> Cc1ccc(-n2c(C)nc3c(cnn3-c3ccc(F)cc3)c2=O)cc1C
 : 7.2%	1.2	i
> COc1ccc(N2C(=O)C3C(C2=O)C2C=CC3C23CC3)c(OC)c1 (stereo unspecified)
 : 2.7%	-0.75	i
> CC(=O)CSc1nc(N)c(C#N)c(-c2cccs2)c1C#N
 : 4.4%	nt	i
> COc1ccc(CNC(=O)CN(Cc2ccc(Cl)cc2)S(=O)(=O)c2ccccc2)cc1
 : -0.7%	nt	i
> S=c1nc(-c2ccccc2)n(CCCN2CCOCC2)c2c1CCCC2
 : 3.6%	-0.38	i
> COC(=O)Nc1ccc(S(=O)(=O)Nc2ccccc2F)cc1
 : 6.6%	0.71	i
> COc1ccc(C2=Nn3c(nnc3-c3ccco3)SC2)cc1
 : -1.2%	nt	i
> Cc1ccc(N(CC(=O)Nc2cc(C)cc(C)c2)S(=O)(=O)c2cccc3nonc23)cc1
 : -2.3%	nt	i
> CCN(CC)CCn1c2ccccc2c2cnc(N=CN(C)C)c(C#N)c21
 : -3.1%	-0.37	i
> Cc1cc(NC(=O)C2C3C(=O)N(Cc4ccc(Cl)cc4)C(C(=O)NC4CCCCC4)C34C=CC2(C)O4)no1 (stereo unspecified)
 : -0.1%	nt	i
> Cc1ccc(C(=O)Nc2ccc3c(c2)OCO3)o1
 : 5.2%	-0.72	i
> Cc1nc(N2CCN(C(c3ccccc3)c3ccccc3)CC2)nc2c1C(=O)CCC2
 : -0.3%	-0.45	i
> Cc1ccc(C)c(/C(O)=C2/C(=O)C(=O)N(CCN3CCOCC3)C2c2ccco2)c1 (stereo unspecified)
 : 0.4%	1.4	i
> CN(C)C(=O)c1ccc(NC(=O)c2cccnc2)cc1
 : 3.8%	2.5	i
> Cc1c(N2C(=O)c3ccccc3C2=O)c(=O)n(-c2ccccc2)n1C
 : 8.2%	0.63	i
> COc1ccc(-c2nc3ccccn3c2NCc2ccc3c(c2)OCO3)cc1
 : -5.3%	nt	i
> CCOc1ccc2nc(N3CCCCCC3)sc2c1
 : -2.3%	0.91	i
> N#CCCN1CCN(S(=O)(=O)c2ccc(S(=O)(=O)NC3CCCC3)cc2)CC1
 : 1.0%	-0.15	i
> CCN1C(=O)C2C(c3ccc(O)c(OC)c3)NC(C)(C(=O)OC)C2C1=O (stereo unspecified)
 : -2.5%	-0.34	i
> COc1cc(C(=O)OCC(=O)Nc2cc(C)on2)cc(OC)c1OC
 : -5.1%	nt	i
> Cn1c(OCc2cccnc2)nc2c1c(=O)n(Cc1ccc(Cl)cc1)c(=O)n2C
 : -1.8%	0.4	i
> CCOc1ccc(-c2nnc(-c3ccco3)o2)cc1OCC
 : -4.8%	-0.61	i
> CC(C)N(CCNC(=O)c1cn(C)c2ccc(S(=O)(=O)N(C)C)cc2c1=O)Cc1ccccc1
 : -0.3%	-0.36	i
> CCOc1cc(C(=O)Nc2cc(C)ccn2)cc(OCC)c1OCC
 : -3.7%	-0.78	i
> O=c1n(Cc2ccccc2)c2cc(Cl)cnc2n1Cc1ccccc1
 : -0.2%	1.8	i
> C/C(CC1(O)C(=O)N(Cc2ccccc2)c2ccccc21)=N\O (stereo unspecified)
 : -1.0%	-6.4*	i
> O=C(CN1CCN(c2ncccn2)CC1)Nc1ccccc1-n1cccc1
 : -1.6%	0.27	i
> COc1ccc(C(=O)N2CCN(C3CCN(Cc4ccccc4)CC3)CC2)cc1OC
 : 1.6%	nt	i
> COc1ccc2c(c1)SC1=NCCS(=O)(=O)N12
 : -5.5%	-0.47	i
> O=C(CCc1ccccc1)Nc1ccc(N2CCOCC2)c(Cl)c1
 : -0.6%	nt	i
> Cc1onc(COc2ccccc2O)c1Br
 : 6.0%	-0.65	i
> CCCOc1ccc(C(C)=O)cc1CC(C(N)=O)C(N)=O
 : 6.4%	nt	i
> C#CCSc1nnc(-c2c[nH]c3ccccc23)n1C
 : 3.1%	2.4	i
> Cc1ccc(OCC(=O)Nc2cccc(C)n2)c(C)c1
 : 11%	0.88	i
> Cc1cc(OCC(=O)NCCCN(C)C)cc(C)c1Br
 : -0.7%	0.66	i
> C=CCn1c(N)c(-c2nc3ccccc3n2C)sc1=S
 : -10%	0.97	i

The list continues.
Each structure is followed by: Hsc70 ATP site	WNV protease inh	MT1-MMP reporter
> CC(=O)c1cccc(NC(=O)c2cc(C)no2)c1
 : 5.1%	1	i
> O=C(c1cnn2c(C(F)F)cc(C3CC3)nc12)N1CCc2ccccc2C1
 : -0.6%	0.36	i
> O=C(COc1ccc(Cl)cc1Cl)NCc1ccco1
 : -3.1%	1.5	i
> c1ccc(C2(c3ccccc3)OCC(Cn3cncn3)O2)cc1 (stereo unspecified)
 : -4.9%	-0.95	i
> Cc1cc(C)c(NC(=O)CN2CCN3CCCC3C2)c(C)c1 (stereo unspecified)
 : 5.7%	-1.6	i
> Cc1ccc(C2=N/C(=C\c3cccs3)C(=O)N2Nc2ccccc2)cc1
 : -6.8%	nt	i
> CC(C)NC(=O)CCCOc1ccc(Cl)cc1Cl
 : -3.2%	nt	i
> CCC(=O)N1CCc2cc(S(=O)(=O)CCC(=O)NCc3ccc4c(c3)OCO4)ccc21
 : -3.7%	1.4	i
> CC(C)N1CC(C(=O)Nc2ccccc2)CC1=O (stereo unspecified)
 : 0.6%	nt	i
> Cc1c(C(=O)NCc2cccnc2)oc2c1C(=O)CC(C)(C)C2
 : -4.8%	-1.7	i
> O=C(Nc1ccccc1)N1CCN(c2nc3ccccc3s2)CC1
 : -5.9%	-1.7	i
> Cc1ccc(Cl)cc1N(CC(=O)NC1CCCCC1)S(C)(=O)=O
 : 0.7%	0.8	i
> COC(=O)c1cc(Br)c(=O)n(Cc2ccco2)c1
 : 0.1%	0.97	i
> COc1ccccc1-n1c2c(cc(C(=O)N3CCC(C)CC3)c1=O)C(=O)CC(C)(C)C2
 : 5.9%	-0.25	i
> CCC(C)(C)NC(=O)C(c1ccccc1F)N(Cc1ccco1)C(=O)Cn1nnc2ccccc21 (stereo unspecified)
 : 7.1%	-1.2	i
> CN(CC(=O)Nc1ccccc1Cl)C(=O)COC(=O)CNC(=O)c1ccc(Br)o1
 : -0.7%	0.41	i
> Cc1cc(C)n(-c2nc(NCc3cccnc3)c3c4c(sc3n2)COC(C)(C)C4)n1
 : 5.2%	0.37	i
> CCC1CCc2c(sc(NC(=O)c3ccoc3C)c2C(N)=O)C1 (stereo unspecified)
 : -11%	0.31	i
> COc1ccc(NC(=O)CSc2nc(NS(=O)(=O)c3ccccc3)cc(=O)[nH]2)cc1
 : 7.2%	0.62	i
> Nc1c(N2CCN(c3ccccc3)CC2)c2ccccc2oc1=O
 : 2.6%	2.2	i
> Cc1ccc(S(=O)(=O)/N=C/c2ccco2)cc1
 : 8.9%	2.7	i
> CC1=NC(Nc2nc(C)c3ccccc3n2)=NC(C)(C)C1
 : -4.1%	0.13	i
> CC1(C)SC2c3ccccc3C(=O)N2[C@@H]1C(=O)NCCCN1CCOCC1 (stereo partly specified)
 : -8.3%	-0.18	i
> CCCc1cc(=O)oc2cc(C)cc(OCc3nn[nH]n3)c12
 : -5.4%	1	i
> Cc1ccc(OCCC(=O)Nc2c(C)n(C)n(-c3ccccc3)c2=O)cc1
 : -2.2%	-0.14	i
> O=c1c2ccccc2ncn1Cc1ccco1
 : -2.1%	-1.2	i
> O=C(CN1CCCC1)N1c2ccccc2Sc2ccccc21
 : 1.1%	-1	i
> Cn1c(=O)c2c(nc(SCC(=O)Nc3ccccc3N3CCCCC3)n2C)n(C)c1=O
 : 2.2%	-0.49	i
> O=S(=O)(c1ccc(Cl)cc1Br)N1CCCCC1
 : -3.1%	-1	i
> Cc1ccc(N2C(=O)C3ON(c4ccccc4)C(c4ccncc4)C3C2=O)cc1 (stereo unspecified)
 : 4.0%	-0.12	i
> CC(C)C(NC(=O)C1CCCCC1)C(=O)Nc1ccc2c(c1)OCCO2 (stereo unspecified)
 : -3.3%	-0.39	i
> CC1=C(C(=O)OCc2ccccc2)C(c2cccnc2)n2ncnc2N1 (stereo unspecified)
 : 1.4%	1.4	i
> CCc1cc(C)c(O)c(CC)n1
 : 1.6%	nt	i
> COC(=O)c1[nH]c2cc(C)ccc2c1NC(=O)CN1CCN(c2ccccc2OC)CC1
 : -0.1%	0.5	i
> COc1ccc(OC)c(-c2cc(C(=O)N3CCCc4ccccc43)no2)c1
 : 0.3%	-0.39	i
> Cc1ccc(NC(=O)CS(=O)CC(=O)NC(C)CCc2ccco2)cc1Cl (stereo unspecified)
 : -5.7%	0.4	i
> O=CN1CCc2scc[n+]2-c2ccccc21
 : -1.1%	nt	i
> Cc1cc(Nc2nc3ccccc3[nH]c2=O)n(-c2ccccc2)n1
 : -4.8%	0.42	i
> CCN(CC)c1ccc(C2C3CCCCC3(O)CCN2CC(=O)N2CCCCC2)cc1 (stereo unspecified)
 : 0.2%	1.9	i
> CCOc1ccccc1OCCCC(=O)N1CCN(S(=O)(=O)c2ccc(C)cc2)CC1
 : -0.3%	-0.32	i

Of the compounds above, 3 contain a cyano group.
Each structure is followed by: Hsc70 ATP site	WNV protease inh	MT1-MMP reporter
> CC(=O)CSc1nc(N)c(C#N)c(-c2cccs2)c1C#N
 : 4.4%	nt	i
> CCN(CC)CCn1c2ccccc2c2cnc(N=CN(C)C)c(C#N)c21
 : -3.1%	-0.37	i
> N#CCCN1CCN(S(=O)(=O)c2ccc(S(=O)(=O)NC3CCCC3)cc2)CC1
 : 1.0%	-0.15	i

The listing continues.
Each structure is followed by: Hsc70 ATP site	WNV protease inh	MT1-MMP reporter
> CC(=Nc1ccccc1)c1sc2ccccc2c1O
 : -1.1%	nt	i
> CCn1c(SCC(=O)Nc2nonc2C)nnc1-c1ccoc1C
 : -5.3%	0.71	i
> N=c1sc2ccccc2n1-c1ccccc1
 : -4.3%	-0.22	i
> CN(C1CCCCC1)S(=O)(=O)c1ccc2c(c1)c(=O)c(C(=O)NCCN1CCCC1)cn2C
 : -0.3%	-2.1	i
> COc1nc(C)ccc1-c1noc(-c2ccncc2)n1
 : 1.9%	-0.32	i
> O=C(CN1CCc2ccccc2C1)Nc1ccccc1N1CCCCCC1
 : -1.0%	-0.81	i
> COc1ccc(-c2nnc(SCc3cccc(C)c3)n2N)cc1
 : 1.8%	nt	i
> CCOC(=O)c1c(C)[nH]c(C(=O)OCC(=O)N2CCc3ccccc32)c1C
 : 0.0%	1.6	i
> CCOC(=O)C(C)Sc1nc(N)c(NC(=O)c2ccc(OC)c(OC)c2)c(=O)[nH]1 (stereo unspecified)
 : 1.4%	-0.03	i

Screens deposited in PubChem BioAssay by several laboratories.
